# Bioassay records from PubChem BioAssay.
# Kir21 block = blocks the mouse Kir2.1 inward-rectifier potassium channel; P35561; 310,000 tested, 0.85% active; B-score at 10 µM; HEK293-Kir2.1, FluxOR thallium flux fluorescence; hits give low values;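 active = fluorescence ratio B-score at or below minus 3 SD of library scores, with starting-brightness B-score within 2 SD, cut at about -4.2 in these data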;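 also: channel flux triggered by added potassium and thallium sulfate stimulus; B-score of peak minus minimum fluorescence over baseline after thallium stimulus; more negative B-score means stronger Kir2.1 block with less thallium influx; some compounds called inactive have numbers as strong as hits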
# Target sequence (P35561 whole entry, looked up): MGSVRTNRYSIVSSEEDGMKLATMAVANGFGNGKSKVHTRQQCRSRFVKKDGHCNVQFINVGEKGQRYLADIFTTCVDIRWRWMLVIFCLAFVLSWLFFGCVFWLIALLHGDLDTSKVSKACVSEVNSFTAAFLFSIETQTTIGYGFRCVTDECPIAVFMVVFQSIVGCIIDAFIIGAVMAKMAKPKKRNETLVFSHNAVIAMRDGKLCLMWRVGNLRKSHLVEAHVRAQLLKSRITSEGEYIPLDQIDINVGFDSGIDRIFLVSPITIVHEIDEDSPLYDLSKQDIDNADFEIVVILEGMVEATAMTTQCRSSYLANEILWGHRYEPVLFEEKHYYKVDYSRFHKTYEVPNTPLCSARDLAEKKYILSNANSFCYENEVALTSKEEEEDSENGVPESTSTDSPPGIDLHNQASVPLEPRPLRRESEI
# * = called active by the depositor.
compound	Kir21 block
COc1ccccc1CC(=O)Nc1ccc(-c2noc(COc3cccc(C)c3C)n2)cc1	2
O=P(C(=NCCO)NO)(N1CCOCC1)N1CCOCC1	1
COc1ccc(S(=O)(=O)N(C)CC(=O)NC2CCCCC2)cc1Cl	-0.42
CCN1CCN(c2cc(-c3ccccc3)nc3cc(-c4cccc(F)c4)nn23)CC1	0.39
Cn1cnnc1SCC(=O)Nc1ccccc1F	0.08
CN(C)C(=O)c1cc([N+](=O)[O-])cc([N+](=O)[O-])c1N(C)C	-0.12
CCC1=C(OC(=O)N(CC)CC)N2C(=O)OC(=NCC(=O)OC)[C@]2(Cc2ccccc2)[C@H]2C1=CC[C@H]1C(=O)N(c3ccccc3)C(=O)[C@H]12	-1.2
CC(=O)Nc1nc2ccccc2[nH]1	-1.1
O=C(N/N=C/c1cccnc1)c1cc(-c2ccccc2Cl)nc2ccccc12	0.61
N#Cc1nc(COc2ccc(Br)cc2)oc1N1CCCC1	0.13
COc1ccc(C(=O)c2oc3nc(C)cc(C)c3c2N)cc1	-1.7
N#CC1=C(N)SC(C(=O)c2ccccc2)C1c1cccs1 (stereo not given)	0.42
Cc1nc(NCc2ccco2)c2c3c(sc2n1)CCC3	-0.02
CCC(=O)N1CCN(c2ccccc2NC(=O)c2ccc(-c3cccc([N+](=O)[O-])c3)o2)CC1	0.01
O=C(Cn1cc(C(=O)C2CC2)c2ccccc21)Nc1ccc(F)cc1	-0.34
CC(C)N1C(=O)c2ccccc2N(Cc2ccccc2)S1(=O)=O	-2

# An excerpt from above in order of molecular weight, smallest number first:
compound	Kir21 block
Cc1nc(NCc2ccco2)c2c3c(sc2n1)CCC3	-0.02
N#CC1=C(N)SC(C(=O)c2ccccc2)C1c1cccs1 (stereo not given)	0.42
CC(C)N1C(=O)c2ccccc2N(Cc2ccccc2)S1(=O)=O	-2
O=C(Cn1cc(C(=O)C2CC2)c2ccccc21)Nc1ccc(F)cc1	-0.34
N#Cc1nc(COc2ccc(Br)cc2)oc1N1CCCC1	0.13
CCC(=O)N1CCN(c2ccccc2NC(=O)c2ccc(-c3cccc([N+](=O)[O-])c3)o2)CC1	0.01

# (cont.)
compound	Kir21 block
C=CCn1c(CSCc2ccc(F)cc2)n[nH]c1=S	-0.8
CN1CCN(Cc2nc(Cc3ccccc3)no2)CC1c1ccccc1 (stereo not given)	-1.3
CCOc1ccc(C2C(C#N)=C(N)Oc3cc(C)n(Cc4ccco4)c(=O)c32)cc1OC (stereo not given)	-0.51
COc1ccc(-c2nnc(SCC(=O)N(Cc3ccccc3)C(C)(C)C)o2)cc1OC	-1.7
Nc1nnc(Sc2ccc(Cl)cc2[N+](=O)[O-])s1	0
Cc1c(C)n(Cc2ccccc2)c2ncnc(NCCO)c12	0.43
Cn1c(-c2ccccc2[N+](=O)[O-])[n+](C)c2ccccc21	0.92
c1csc(CNc2nc3ccccc3n2CCN2CCOCC2)c1	-0.66
COc1cc(/C=C2\SC(=S)N(CC(=O)NC3=NCCS3)C2=O)cc(OC)c1OC	0.46
O=C(Nc1ccc(OC(=O)c2cccnc2)cc1)c1cccnc1	0.21
COc1ccc(CNC(=O)C2CCN(S(=O)(=O)c3ccc4nc5c(c(C(=O)O)c4c3)CC(C)CC5)CC2)cc1 (stereo not given)	0.08
Cc1ccc(NC(=O)CCN2CC(C)OC(C)C2)cc1 (stereo not given)	1
COc1ccc(C(=O)c2ccc(Cl)cc2)c2ccccc12	1
Cc1cc(Nc2cccc([N+](=O)[O-])c2)n2c(nc3ccccc32)c1C#N	-0.04
CCOc1ccc(N(CC(=O)Nc2cccc(Cl)c2)S(=O)(=O)c2c(C)noc2C)cc1	-1.1
COc1ccc(Nc2ccc(S(=O)(=O)N3CCCCC3)cc2[N+](=O)[O-])cc1	-0.19
CN1CCN(C(=O)C2CCC(=O)N(Cc3cccc(C(F)(F)F)c3)C2)CC1 (stereo not given)	-0.54
CCCCCC(=O)Nc1cccc(C2=NOC3(C2)C[C@@H](C(N)=O)N(C(=O)c2cc([N+](=O)[O-])cc([N+](=O)[O-])c2C)C3)c1 (stereo not given in full)	-0.38
O=C(NCc1cccnc1)c1cn(-c2ccccc2)nc1-c1cccs1	-0.06
Cc1ccc(NC(=O)CSc2ccc(-c3ccco3)nn2)c(C)c1	-0.18
Cc1c(Cl)cccc1-c1ccc(C(=O)N2CCN(c3ccc([N+](=O)[O-])cc3)CC2)o1	1.5
Cc1noc(C)c1CN1C(=O)NC(Cc2ccccc2)(Cc2ccccc2)C1=O	-0.1
CC(=O)c1ccc(Nc2c(C)n(C)n(-c3ccccc3)c2=O)cc1	-0.11
CCCCN1C(=O)C2NN=C(C(=O)OC)C2C1=O (stereo not given)	-0.04
O=C1CCCN1CN(C(=O)c1ccccc1)c1ccc(F)cc1	-0.76
O=C(CSc1nnc2c(Cl)cc(Cl)cn12)NC1CCS(=O)(=O)C1 (stereo not given)	-2.4
CCn1c(=O)c(=O)n(CC)c2cc(S(=O)(=O)N3CCc4ccccc43)ccc21	0
COc1ccc(Cc2noc(-c3ccccc3)n2)cc1OC	1.4
Cc1cc(C)cc(C(=O)n2cnnc2N)c1	-1.4
CC(=O)Nc1ccc(Nc2nc3c(S(=O)(=O)c4ccc(C)c(C)c4)nnn3c3ccccc23)cc1	1.1
COCCn1c(C(F)(F)F)ccc(NC(=O)c2ccccc2)c1=O	-0.77
COc1cccc(CNC(=O)N[C@@H](C)C(=O)O)c1	-2
COC(=O)c1ccccc1OC(=O)c1cccnc1	2.4
CCOc1ccccc1NS(=O)(=O)c1cc2c3c(c1)CC(=O)N3CCC2	-3.1
CCCC(=O)Nc1nc(-c2ccc(Cl)s2)cs1	-0.62
CCOc1ccccc1N(CC(=O)Nc1cccnc1)S(C)(=O)=O	1
Cc1ccc(CNC(=O)CCCC(=O)O)cc1	0.92
COc1ccc(NC(=O)C2OC3OC(C)(C)OC3C3OC(C)(C)OC23)cc1 (stereo not given)	1.2
Cc1c(NC(=O)CSC(=S)N2CCCC2)c(=O)n(-c2ccccc2)n1C	0.11
COc1ccc(N2CCN(CCNC(=O)CCS(=O)(=O)c3cccc4nsnc34)CC2)cc1	-0.07
O=C(O)CNC(=O)c1ccc(N2CCOCC2)cc1[N+](=O)[O-]	0.99
CCN1CCN(CCNC(=O)CSCc2nc(-c3ccc(OC)c(OC)c3)oc2C)CC1	1.3
OCCNC(=S)Nc1ccc2nsnc2c1	0.59
O=C(CSc1nc2ncc(Br)cc2[nH]1)Nc1ccc2c(c1)OCO2	0.63
O=C(O)C1CCN(C(=O)CSc2nc3ccccc3c(=O)n2Cc2ccccc2)CC1	1.1
CCSc1ccc(NC(=O)c2cccnc2)cc1	0.61
Cc1ccccc1OCc1nc(C#N)c(N2CCCC2)o1	1.7
Cc1oc2c(C)c3oc(=O)c(CC(=O)N[C@@H](CCCNC(N)=O)C(=O)O)c(C)c3cc2c1C	0.59

# A stretch from further up:
compound	Kir21 block
OCCNC(=S)Nc1ccc2nsnc2c1	0.59
O=C(CSc1nc2ncc(Br)cc2[nH]1)Nc1ccc2c(c1)OCO2	0.63
O=C(O)C1CCN(C(=O)CSc2nc3ccccc3c(=O)n2Cc2ccccc2)CC1	1.1
CCSc1ccc(NC(=O)c2cccnc2)cc1	0.61

# The results go on.
compound	Kir21 block
CCN(C1CCCCC1)S(=O)(=O)c1ccc(S(=O)(=O)NCc2ccncc2)cc1	1.2
O=C(Cc1cccs1)N(Cc1cccs1)C1(C(=O)NC2CCCC2)CCCCC1	-2.2
COc1ccc(Br)cc1S(=O)(=O)n1ccnc1	1.1
O=C(NC1CCCCCC1)C1CCN(S(=O)(=O)N2CCC3(CC2)OCCO3)CC1	0.71
Oc1ccc(Br)cc1CNc1ccccn1	0.91
COc1ccccc1CNC(=O)CCc1ccccc1	1.4
CN1CCN(S(=O)(=O)c2ccc(NC(=O)c3csc4ccccc34)cc2)CC1	0.11
Cc1ccc(NC(=O)OCCN2CCN(Cc3ccccc3)CCC2=O)cc1C	0.49
CC(C)CC(=O)Nc1ccc(C(=O)Cn2nc(C(=O)O)c3ccccc3c2=O)cc1	-0.18
Oc1c(Cl)cc(Cl)cc1CNc1nccs1	0.67
CCOC(=O)c1cccc(NC(=O)CCS(=O)(=O)c2ccc(Br)s2)c1	1.4
COc1ccc(OC2CCN(S(=O)(=O)c3cccc(F)c3)CC2)cc1	-0.09
Cn1c(=O)c2sccc2n2c(CCCC(=O)NCc3ccco3)nnc12	-0.74
O=C1NC(=Nc2ccc(Cl)cc2)SC1Cc1cc(Cl)ccc1Cl (stereo not given)	3.3
O=C(c1ccco1)N1CCN=C1SCc1cccc(F)c1	0.35
CCOC(=O)Oc1ccc2c(=O)c(Oc3cccc(C)c3)coc2c1	-0.71

# Additional structures:
structure,Kir21 block
Cc1cc(C)cc(-n2nnc(C(=O)NCc3ccccc3Cl)c2N)c1,0.13
CCOC(=O)c1ccc(NC(=O)c2cc3ccccc3o2)cc1,0.03
O=C(c1cccs1)N1CCC2(O)CCCCC2C1c1ccc(F)cc1 (stereo not given),0.62
COc1ccccc1/C=C/C(=O)c1ccc(NC(C)=O)cc1,1.1
CCNC(=O)NC(=O)COC(=O)CCCSc1nc2ccccc2s1,-0.73
COc1ccc(-c2cc(-c3ccccc3)no2)cc1,0.14
O=C(c1ccccc1)c1ccc2c(c1)OCCOCCOCCOCCO2,-0.01
CC1(C)Cc2c(sc(NC(=O)c3ccc(S(=O)(=O)N4CCCCCC4)cc3)c2C#N)C(C)(C)N1,2.4
CCc1ccc(NS(=O)(=O)c2ccc3[nH]cc(C(=O)N4CCc5ccccc54)c(=O)c3c2)cc1,-0.04
C=CCn1c(C)cc(C(=O)CSc2nnc(NC(C)C)s2)c1C,-1.6
CC(=O)Nc1ccc(S(=O)(=O)N2CCCN(S(=O)(=O)c3ccc(NC(C)=O)cc3)CC2)cc1,0.88
O=C(COC(=O)CCC(=O)c1cccs1)Nc1ccc(S(=O)(=O)N2CCOCC2)cc1,-1.8
Cc1cc2c(cc(C(=O)OC(C(=O)NCC3CCCO3)C(C)C)n2C)o1 (stereo not given),-0.85
Clc1ccc(C[n+]2cc(-c3ccccc3)n3c2CCC3)cc1,1.1
COc1ccc(-n2c(C)c([N+](=O)[O-])c3ccc(O)c(CN4CCCCC4)c32)cc1,-1.6
CCOc1ccc(Cc2nnc(SCC(=O)c3ccc(OC)cc3)o2)cc1,-0.05
CCOC(=O)c1c(NC(=O)CSc2nnc(-c3cccnc3)n2Cc2ccco2)sc(C)c1C,-1.3
CCN(CC)CCCNc1oc(-c2cccc(Cl)c2)nc1C#N,-1.3
O=C(COc1ccc(Br)cc1Cl)NC(=O)Nc1ccc2c(c1)OCCO2,-0.65
O=C(CCN1CCOCC1)Nc1ccc2c(c1)CCC2,0.8
COC(=O)C1=C(C)N(c2ccc(C)cc2)/C(=C/c2cccs2)C1=O,-0.18
CCn1cnc2c1c(=O)n(CC(=O)Nc1cc(C)on1)c(=O)n2Cc1ccccc1,-1.7
Cc1ccc2[nH]c(C(=O)O)c(NC(=O)CN3CCN(c4cccc(C)c4C)CC3)c2c1,-0.52
O=C(/C=C/c1ccco1)NC(=S)Nc1ccccc1N1CCOCC1,0.21
COCC(=O)N1CCC(Oc2ccc(C(=O)NCCCC3CCCC3)cc2)CC1,-0.79
CC(=O)N1CC=CC1(C)C(=O)O (stereo not given),1.6
O=C(CNC(=O)c1ccc(Br)cc1)NC1=NCCS1,-0.68
CCSc1nnc(CNC(=O)C23CC4CC(CC(C4)C2)C3)n1Cc1ccccc1,0.94
C[C@H](NC(=O)c1nc[nH]c1C(=O)NCc1ccccc1)C(=O)OC(C)(C)C,-1.8
O=C(COc1ccccc1)Nc1cc(C(F)(F)F)ccc1N1CCCC1,0.41
OC(COCc1ccccc1F)CN1CCCCC1 (stereo not given),0.02
O=C(c1cc(C2CC2)on1)N1CCN(c2ccc(F)cc2)CC1,1.8
CC(C)=C1C2CCC1C1C(=O)N(CCc3ccccc3)C(=O)C21 (stereo not given),-3.9
CC(=O)c1ccc(N(C(=O)c2csnn2)C(C(=O)NC(C)(C)C)c2cccs2)cc1 (stereo not given),-2.1
O=C(Nc1ccc(O)cc1)/C(=C\C=C\c1ccccc1)NC(=O)c1ccccc1,-0.02
COc1cccc(Nc2cc(C)nc3ccccc23)c1,-1.2
Cc1ccc(OCCCCn2cnc3ccccc32)cc1,-0.04
CN(C)CCNC(=O)c1onc(CSc2nc3ccccc3[nH]2)c1C(=O)NCCN(C)C,0.02
CC(C)c1ccc(CN2CC(C(=O)O)CC2=O)cc1 (stereo not given),0.39
Cc1ccc(/C=N/NC(=O)Cn2ccc(C(F)(F)F)n2)o1,-0.42
COc1ccccc1NC(=O)Nc1cccc(C(=O)O)c1,-0.31
O=C(Nc1nccs1)c1cccnc1Cl,0.07
Cc1c(C(=O)N2CCOCC2)sc(NC(=O)C(C)C)c1C#N,-1.2
Cc1ccc(Cl)cc1NC(=O)COC(=O)Cn1cnc2c1c(=O)n(C)c(=O)n2C,-2.9
CCOC(=O)CC(N)c1cccc([N+](=O)[O-])c1 (stereo not given),0.39
C=CCOc1cccc(C2/C(=C(/O)c3ccc4c(c3)CC(C)O4)C(=O)C(=O)N2CCN2CCOCC2)c1 (stereo not given),1
CC(NC(=O)C(Cc1ccccc1)N1C(=O)C2C3CCC(C3)C2C1=O)c1ccccc1 (stereo not given),0.04
CCOC(=O)N1CCC(NC(=O)C(NS(=O)(=O)c2ccc3c(c2)CCN3C(=O)CC)C(C)C)CC1 (stereo not given),0.82
CC(C)(C)Nc1nc(NCc2cccnc2)nc(N2CCOCC2)n1,1.1
NC(=O)c1ccc(C(=O)c2ccc([N+](=O)[O-])cc2)cc1,-1.4
CC(C)c1ccc(-c2c(C#N)c(N)nc(SCC(=O)N3CCCCC3)c2C#N)cc1,-1.8

# An excerpt; most or all hits stand in other tables.
